Sa growth 42C – blocks Staphylococcus aureus growth; relative growth, % (test concentration not listed); S. aureus RN4220 growth, OD600, 20 h, 42 °C; stronger effect = lower value; AID 720641; 170,000 tested, 0.53% active;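 active = growth at 42 °C up to 50% and 20 or more points under that at 30 °C, or under 10% at both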;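 note: 300 nL library stock went into each well; scaled to the means of positive and negative controls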
GIV Gai3 FP – inhibitors of GIV GBA-motif binding to rat Galpha-i3; P08753; Galpha-i3/FITC-GIV peptide fluorescence polarization, 90 min; stronger effect = lower value; scaled: aluminum fluoride 0%, vehicle 100%; AID 1224905; 210,000 tested, 0.42% active; percent of control (FP), % (concentration not given with the values);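 active = replicate mean at 85% of control or lower, very high polarization wells dropped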;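 note: wells of about 15 µL received 100 nL stock; the first replicate is given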
Target sequence (P08753 whole entry, looked up): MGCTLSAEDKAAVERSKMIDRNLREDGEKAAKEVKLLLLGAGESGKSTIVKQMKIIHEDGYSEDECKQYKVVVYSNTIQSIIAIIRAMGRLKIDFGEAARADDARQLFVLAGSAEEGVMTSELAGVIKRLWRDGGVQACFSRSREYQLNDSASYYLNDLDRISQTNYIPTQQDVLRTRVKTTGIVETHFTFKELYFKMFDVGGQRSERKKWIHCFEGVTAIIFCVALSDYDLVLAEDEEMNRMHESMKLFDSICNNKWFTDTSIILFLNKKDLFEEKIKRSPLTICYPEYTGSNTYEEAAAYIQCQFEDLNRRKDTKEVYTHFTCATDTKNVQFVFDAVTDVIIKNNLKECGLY
HCMV NEC inh – inhibitors of HCMV UL50-UL53 nuclear egress complex interaction; HTRF UL50-UL53 interaction, normalized percent inhibition; inhibition, % (test concentration not listed); 190,000 tested, 0.15% active; AID 1918969;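 active = both replicates at 50% or more, plus weaker picks with an unusually low signal ratio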;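 note: stock transfer was 100 nL into about 20 µL; 0% = negative control wells and 100% = wells with untagged competitor protein; inactives centre near -12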
Sa growth 42C second temp – second read-out of Sa growth 42C, no call of its own (marks repeat the call); relative growth, %; measured here: growth at 30 °C;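 optical density after 20 h as mean of two plates; 100% = untreated growth and lower means inhibition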
Starred values were filed as active, the others as inactive; nt = no result given; & = joins results of further samples.

canonical_smiles,Sa growth 42C,Sa growth 42C second temp,GIV Gai3 FP,HCMV NEC inh
O=C(Cn1c(-c2cccs2)cc2ccccc21)NCc1ccccc1Br,86,102,104,nt
COc1cc(Cl)c(NS(=O)(=O)c2cc(-c3onc(C)c3C)ccc2OC)c(OC)c1,93,95,102,6
COc1ccc(C2C(C(N)=O)=C(C)Nc3nc(-c4ccccc4Cl)nn32)cc1 (centres undefined),108,76,108,-7
COC(=O)c1c(NC(=O)C2=Cc3ccc(C)cc3OC=C2)sc(C)c1C,nt,nt,100,-7
COc1cc(Cl)c(C)cc1NC(=O)c1cc(CN2CCOCC2)on1,76,91,106,nt
O=C(NC1CCCC1)C1C2C=CC(C2)C1C(=O)N1CCOCC1 (centres undefined),85,112,106,4
CCc1ccccc1S(=O)(=O)Cc1ccc(C(=O)NCCc2ccccc2)o1,82,91,107,6
COc1cc(C2NCCS2)cc(OC)c1OC (centres undefined),97,85,100,nt
COc1cccc(NC(=O)Cn2cc(S(=O)(=O)Cc3ccccc3F)c3ccccc32)c1,104,88,102,nt
COC(=O)c1c(N)sc(Cc2ccccc2)c1C,81,84,109,-4
Cc1c(C)n(C)c2ccc(C(=O)NCCc3ccccc3)cc12,nt,nt,106,-12
CC1(C)CC(=O)C2=C(C1)OC1=C(C(=O)CC(C)(C)C1)C2c1cccc(Br)c1,nt,nt,105,-22
N/C(=N/c1nc2ccccc2o1)NC(=O)C(Cc1ccccc1)N1C(=O)c2ccccc2C1=O (centres undefined),101,109,94,-10
Cc1[nH]n2c(=O)cc(-c3ccc(F)cc3)nc2c1-c1ccccc1,nt,nt,96,-10
Cc1ccc(C(=O)N(C(=O)c2ccc(C)cc2)c2cc(C)on2)cc1,93,96,nt,6
Cc1ccc(NCc2nc3nc(C)cc(=O)n3[nH]2)cc1,nt,nt,108,0
CCCCN(CCCNC(=O)CN1N=C(c2ccc(C)cc2)CCC1=O)c1ccccc1,85,100,99,nt
CCOC(=O)C1C2CCC(C2)N1S(C)(=O)=O (centres undefined),86,92,nt,-25
Clc1cccc(OCc2ncn(-c3cccc(Cl)n3)n2)c1,nt,nt,103,-8
O=C(N1CCCC1)N1c2ccccc2Sc2ccccc21,83,94,106,-1
CCOc1ccc(S(=O)(=O)NCc2ccncc2)cc1C(C)C,99,72,101,-22
O=C1C=CC(=O)N1c1ccc(-c2cnc(-c3ccc(N4C(=O)C=CC4=O)cc3)nc2)cc1,118,66,103,-53
O=C(C1CCC1)N(c1nccs1)C1CCCCC1,83,84,nt,-2
CCS(=O)(=O)Nc1ccc(C(=O)N(C)Cc2ccccc2)cc1,103,108,101,-11

The last 2 compounds of the section before come first, to join the parts:
canonical_smiles,Sa growth 42C,Sa growth 42C second temp,GIV Gai3 FP,HCMV NEC inh
O=C(C1CCC1)N(c1nccs1)C1CCCCC1,83,84,nt,-2
CCS(=O)(=O)Nc1ccc(C(=O)N(C)Cc2ccccc2)cc1,103,108,101,-11
COC(=O)CSc1nsc(SCC(=O)OC)c1C#N,93,84,nt,-19
CC(C)CC(NC(=O)C1CCCCC1)C(=O)NC1CCC(C)CC1 (centres undefined),109,88,102,nt
CCOC(=O)c1csc(-c2cccnc2)n1,100,87,105,-11
Cc1cc(OCCCC(=O)NC2=NCCS2)ccc1Cl,107,96,nt,-15
COc1ccc(C(=O)OCC(=O)c2cc(OC)ccc2OC)cc1,99,91,nt,-30
CCOc1ccc2nc(/N=C/c3ccccc3O)sc2c1,85,82,nt,-5
Cc1c(CCC(=O)O)c(=O)oc2cc3oc4c(c3cc12)CCCC4,103,92,100,nt
COc1ccccc1C(=O)Nc1nnc(S(=O)(=O)N2CCN(c3ccc(F)cc3)CC2)s1,85,82,101,-16
c1nc2nc3c(c(N4CCCCCC4)n2n1)CCC3,nt,nt,104,-11
CC(C)c1ccc(NC(=O)Cn2nnc(C(=O)NCc3cccs3)c2N)cc1,85,87,111,-8
COC(=O)c1ccc(C2c3c(-c4ccc(Br)cc4)n[nH]c3C(=O)N2c2ccc(Cl)cc2)cc1 (centres undefined),114,93,109,-22
CCN(CC)CCNC(=O)c1cc2c(-c3cccc(OC)c3)nn(C)c2s1,nt,nt,110,-7
Cc1ccccc1NC(=O)Nc1sc(=S)n(C)c1C,110,72,106,-2
Cc1cnc(NC(=O)c2cn(-c3ccccc3)nc2-c2ccccc2)s1,nt,nt,103,-9
O=C1CSC(=O)N1CC(O)COc1ccc(OCC(O)CN2C(=O)CSC2=O)cc1 (centres undefined),80,101,100,-6
CC1(C)CN(C(=S)Nc2cccc(Cl)c2)C1=O,95,77,103,-11
Cc1ccc2oc(=O)c3cnn(CC(=O)N4CCCCC4)c3c2c1,95,92,103,nt
Fc1ccc2nc(Nc3nnc(-c4ccco4)o3)sc2c1,115,95,100,nt
Cc1cc(/C=C(/C#N)c2ccc(F)cc2)c(C)n1Cc1ccccc1,104,80,100,0
O=C(c1ccccc1)C1CCN(C(=O)c2ccco2)CC1,98,85,99,-48
O=C(Nc1ccc(Cl)cn1)c1cccc(S(=O)(=O)N2CCCCCC2)c1,98,87,101,nt
O=C(CCN1C(=O)c2ccccc2C1=O)NCc1noc(C2CCCC2)n1,nt,nt,98,-3
COC(=O)C1=CN(CC2CCCO2)C=C(C(=O)OC)C1c1ccc(OC)c(OCc2ccccc2)c1 (centres undefined),nt,nt,102,-11
O=C(c1ccc(-n2nc(C(F)(F)F)c3c2-c2ccoc2CC3)cc1)N1CCc2ccccc21,80,86,99,-25

Whole records as entered above:
Cc1[nH]n2c(=O)cc(-c3ccc(F)cc3)nc2c1-c1ccccc1 as listed: Sa growth 42C = nt; Sa growth 42C second temp = nt; GIV Gai3 FP = 96; HCMV NEC inh = -10
O=C(N1CCCC1)N1c2ccccc2Sc2ccccc21 as listed: Sa growth 42C = 83; Sa growth 42C second temp = 94; GIV Gai3 FP = 106; HCMV NEC inh = -1
CCOc1ccc(S(=O)(=O)NCc2ccncc2)cc1C(C)C as listed: Sa growth 42C = 99; Sa growth 42C second temp = 72; GIV Gai3 FP = 101; HCMV NEC inh = -22

(listing goes on)
canonical_smiles,Sa growth 42C,Sa growth 42C second temp,GIV Gai3 FP,HCMV NEC inh
CCOC(=O)c1scc(-c2ccc(C)cc2)c1S(=O)(=O)N1CCN(c2ccccc2)CC1,107,95,105,nt
CC(C)C(NCc1c(Cl)cccc1Cl)C(=O)O (centres undefined),99,82,107,-5
CCn1c(=O)c(=O)n(CC(=O)N2CCCC(C)C2)c2ccccc21 (centres undefined),nt,nt,100,-22
O=C(NC1CC1)c1cnn(-c2ccc(Cl)cc2)c1C(F)(F)F,94,95,110,-10
O=C(OCC1COc2ccccc2O1)c1ccc(Br)cc1 (centres undefined),96,91,nt,1
Cc1ccccc1N(C)C(=O)Cn1ncc2c1-c1ccccc1OC2,113,83,100,10
Cc1c(Cl)cccc1NCC(=O)N1CC2(C)CC1CC(C)(C)C2 (centres undefined),110,91,nt,-25
Cc1ccc(C)c(Cn2c(C(C)NC(=O)c3ccccc3)nc3ccccc32)c1 (centres undefined),100,87,102,1
CC(=O)Nc1ccc(C2=N/C(=C/c3cn(C(C)=O)c4ccccc34)C(=O)O2)cc1,107,102,200,7
O=C(O)C1CCCN1C(=O)Nc1ccccc1 (centres undefined),99,79,nt,-11
COc1ccc(-c2[nH]ncc2C(=O)NCc2ccccc2)cc1,103,90,97&106,-8&1
CC(C)(C)c1ccc2c(c1)CN(Cc1ccccc1)CO2,91,82,105,-34
Cc1c(Sc2nc3ccccc3[nH]2)c(=O)[nH]c2cc3c(cc12)OCO3,92,89,100,-35
Cc1noc(C)c1C(=O)OC(C)C(=O)Nc1ccc(S(=O)(=O)NC(C)C)cc1 (centres undefined),108,107,nt,-8
CC(=O)N1CC(C)Sc2cc(S(=O)(=O)Nc3cccc(Cl)c3)ccc21 (centres undefined),80,66,101,nt
Cc1cccc(N2CCN(C(=O)C3CCN(S(=O)(=O)Cc4ccccc4)CC3)CC2)c1C,97,88,106,-25
O=C(c1ccncc1)N1N=C(c2c(-c3ccccc3)c3cc(Br)ccc3[nH]c2=O)CC1c1ccccc1 (centres undefined),nt,nt,96,-7
COc1ccc(-c2cc(C(=O)NCCN3CCOCC3)c3cccc(-c4ccc(F)cc4)c3n2)cc1,nt,nt,107,-34
CCOc1ccc(C(=O)Nc2ccc(Cl)c(-c3nc4ccccc4o3)c2)cc1Br,nt,nt,97,-13
O=C(COC(=O)c1cc(C(F)(F)F)cc(C(F)(F)F)c1)NCC1CCCO1 (centres undefined),76,99,nt,14
Cc1cccn2c(=O)c3cc(C(=O)NCCc4ccc(S(N)(=O)=O)cc4)n(C)c3nc12,121,80,98,-18
O=C(Nc1ccccc1)c1ccc(N2C(=O)C3C4C=CC(C4)C3C2=O)cc1 (centres undefined),92,86,104,-24
Cc1ccc2nc(N(Cc3cccnc3)C(=O)Cc3ccccc3)sc2c1,129,95,106,nt
C=CCC(Nc1ccc(F)cc1)c1ccco1 (centres undefined),94,101,102,-3
O=C(CN1C(=O)c2ccccc2C1=O)Nc1ccc2c(c1)OCO2,91,80,99,-35
COC(=O)c1cc(/C=C/C(=O)N(C(=O)NC2CCCCC2)C2CCCCC2)cn1C,110,102,101,5
COc1ccc(CNC(=O)C2CCN(S(=O)(=O)c3cccc(-c4noc(C)n4)c3)CC2)cc1,128,91,106,nt
Cc1cc(C)n(C(=O)c2ccc(-c3ccccc3)cc2)n1,121,96,nt,2
O=C(c1ccc(Cl)cc1)n1nc(-c2ccccc2)nc1NCc1ccco1,100,91,105,-7
O=C(O)C1Cc2c([nH]c3ccccc23)CN1 (centres undefined),nt,nt,105,-7
N#CC(C#N)=C/C=C(\Sc1nnnn1-c1ccccc1)c1ccccc1,95,81,115,-36
Cc1ccccc1C(=O)On1c(-c2ccc(Cl)c([N+](=O)[O-])c2)nc2ccccc2c1=O,nt,nt,100,-22
O=C(NCC1CCCO1)c1ccc(N2CCOCC2)nc1 (centres undefined),96,108,95,4
O=C(NC1CCCc2ccccc21)C1CCN(c2ccc(-c3ccc(F)cc3)nn2)CC1 (centres undefined),nt,nt,99,-12
Cc1ccc(S(=O)(=O)c2cn(CC(=O)Nc3ccc(F)cc3)c3cc4c(cc3c2=O)OCO4)cc1,102,79,110,-4
CCOC(=O)N1CCN(C(=O)/C=C/c2c(C)nn(-c3ccc(F)cc3)c2Cl)CC1,91,95,nt,-19
OC(C#CCN1CCOCC1)c1cccs1 (centres undefined),114,85,103,nt
COc1ccc(OC(C)C(=O)Nc2cccc(C)n2)cc1 (centres undefined),102,96,107,13
CCOC(=O)c1cccc(NC(=O)C2Cc3ccccc3N2C(=O)c2ccccc2)c1 (centres undefined),94,80,103,nt
CCOC(=O)c1cn[nH]c1S(=O)(=O)Nc1ccc(C)cc1C,nt,nt,97,-31
COC(=O)c1sc(=S)n(-c2cccc(C)c2)c1N,87,83,103,nt
COc1ccc(Cn2c(=O)[nH]c3cc(C(=O)N4CCN(c5cccc(OC)c5)CC4)ccc3c2=O)cc1,89,89,102,-25
COc1ccc(C2CC(=O)C3=C(C2)NC(C)=C(C(=O)OCCOc2ccccc2)C3c2cccc(O)c2)cc1 (centres undefined),nt,nt,98,-26
COc1ccc(C2=NN(C(=O)c3cc(OC)c(OC)c(OC)c3)C(c3ccccc3OC)C2)cc1OC (centres undefined),nt,nt,97,-23
Clc1cccc(/C=N/n2c(-c3cccs3)csc2=NCCN2CCOCC2)c1,100,90,nt,-4
COC(=O)C1=CN(CCc2ccccc2)C=C(C(=O)OC)C1C(=O)OC,88,79,nt,-42
Cc1csc2c(N3CCCCC3)ncnc12,99,78,101,-14
CCCC(=O)Oc1ccc2c(C)cc(=O)oc2c1,125,81,nt,-15
CCc1ccccc1N(CC(=O)NC)S(C)(=O)=O,103,113,100,-4
Cc1ccccc1CN1C(=O)c2ccccc2S(=O)c2ccc(C(=O)NCc3ccco3)cc21 (centres undefined),95,94,104,-23
CCOC(=O)c1cnn(C(=O)COc2ccc(C(C)(C)C)cc2C(C)(C)C)c1N,108,102,101,7
O=C(C1=C(O)C(=O)N(CCc2ccccc2)C1c1ccccc1)c1cccs1 (centres undefined),143,97,nt,-15
COc1ccc(CN2C(=O)c3[nH]nc(-c4ccccc4O)c3C2c2ccc(O)cc2)cc1 (centres undefined),77,52,102,-12
CCN(Cc1nc2ccccc2c(=O)[nH]1)Cc1nc2cc(OC)c(OC)cc2c(=O)[nH]1,99,97,nt,-29
CCOC(=O)Cn1nc2n(Cc3ccc(C)cc3)c3ccccc3n2c(=O)c1=O,95,87,96,-2
Cc1noc(C)c1Cc1c(C(=O)O)noc1C,98,79,100,-16
